Mtb MenB inh: blocks the Mycobacterium tuberculosis MenB enzyme. P9WNP5. MenB enzyme assay, absorbance read-out; some hits fall short of the stated cut. inhibition, %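 (about 12 µg/mL by stock and volumes)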. hit rate 0.43% among 100,000. AID 540299;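 active = mean of two replicates above 30%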;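 note: 0% = no compound and 100% = wells with inactive enzyme; the first replicate is given; strong numbers were not always called active; inactives centre near -10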
Target sequence (P9WNP5 whole entry, looked up): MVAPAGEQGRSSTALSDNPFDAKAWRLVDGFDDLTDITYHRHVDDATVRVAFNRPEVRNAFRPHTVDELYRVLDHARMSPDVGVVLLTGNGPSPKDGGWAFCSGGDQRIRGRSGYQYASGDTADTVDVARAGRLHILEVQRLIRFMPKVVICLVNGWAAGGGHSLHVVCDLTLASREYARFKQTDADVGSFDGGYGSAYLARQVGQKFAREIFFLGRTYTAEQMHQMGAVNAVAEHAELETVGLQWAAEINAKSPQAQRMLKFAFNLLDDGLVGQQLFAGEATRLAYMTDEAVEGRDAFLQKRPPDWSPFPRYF
Mtb MbtI inh: MbtI salicylate synthase inhibition | inhibition, %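 (about 17 µg/mL by stock and volumes)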 | purified MbtI enzyme, fluorescence intensity read-out | AID 493033 | hit rate 0.89% among 100,000 | P9WFX0;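 active = above 50% in both replicates, above 80% if mildly self-fluorescent; inactive = the rest, strongly fluorescent compounds included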;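 note: 0% = mean of negative and 100% = mean of positive controls; one replicate is shown; some compounds called inactive have numbers as strong as hits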
PV pol inh: poliovirus RNA polymerase inhibition; P03300; poliovirus polymerase elongation, fluorescence polarization; stronger effect = lower value; % elongation, % (compound at 16.7 µg/mL); hit rate 0.66% among 150,000; AID 588519; in the data active = % elongation below about 90%; note: some results filed as inactive read as strong as hits
Target sequence (P03300 1749-2209 limits assumed): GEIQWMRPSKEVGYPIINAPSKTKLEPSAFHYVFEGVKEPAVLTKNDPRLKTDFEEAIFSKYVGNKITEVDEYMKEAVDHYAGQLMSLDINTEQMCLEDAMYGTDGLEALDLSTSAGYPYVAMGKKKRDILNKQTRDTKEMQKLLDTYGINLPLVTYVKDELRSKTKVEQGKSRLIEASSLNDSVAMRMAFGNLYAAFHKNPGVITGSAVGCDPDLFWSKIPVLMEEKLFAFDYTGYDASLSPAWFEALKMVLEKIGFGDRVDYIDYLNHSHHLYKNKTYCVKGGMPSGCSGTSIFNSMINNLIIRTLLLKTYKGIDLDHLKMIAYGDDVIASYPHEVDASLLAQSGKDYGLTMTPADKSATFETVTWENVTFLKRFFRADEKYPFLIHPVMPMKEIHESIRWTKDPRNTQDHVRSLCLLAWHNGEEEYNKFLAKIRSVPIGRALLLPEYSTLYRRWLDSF
PV pol inh intensity: also measured in PV pol inh; calls as there; % elongation; measured here: total intensity read-out; formula for this scale not given here;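 total fluorescence in place of polarization; lower means less elongation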
* hit, by the source's call; i = inactive; . = not tested or not shown; & = joins results of further samples.

SMILES	Mtb MenB inh	Mtb MbtI inh	PV pol inh	PV pol inh intensity
Cc1ccc(NC(=O)COC(=O)C2CCN(C(=O)OC(C)(C)C)CC2)cc1C	-23	-10	102	99
O=C(Nc1ccc(S(=O)(=O)N2CCCCC2c2cccnc2)cc1)c1ccc(Br)o1 (configuration not stated)	-29	10	100	99
COc1ccc(OCC(O)CNC(=S)Nc2ccc3c(c2)OCCO3)cc1 (configuration not stated)	0	3	101	105
CCOC(=O)N1CCN(CCC(=O)c2ccc(OC)cc2)CC1	-7	10	103	103
O=C(CCN1CCCCC1)N/N=C/c1cccnc1	-12	0	101	103
Cc1ccc(C(=O)NC(=O)OC[C@@H]2CCCN3CCCCC23)cc1 (some centres not stated)	-17	.	103	101
c1ccc2c(c1)CCc1c-2nc2ccccc2c1N1CCOCC1	-6	-5	99	115
CC1CCN(C(=O)COc2ccc3c4c(c(=O)oc3c2)CCCCC4)CC1	-17	i	101	101
COc1cc(C(=O)NCc2nnc(SCC(=O)N3CCc4ccccc43)o2)cc(OC)c1OC	-25	-3	101	107
O=C(CCc1ccco1)N1CCCC(c2nc3ccccc3s2)C1 (configuration not stated)	-33	22	98	95
COCc1[nH]nc2c1C1(C(=O)Nc3ccccc31)C(C#N)=C(N)O2 (configuration not stated)	6	.	101	95
COc1ccc2c(COC(=O)c3ccccc3NCCO)cc(=O)oc2c1	-10	98	94	101
CCc1ccc(NC(=O)C(C)OC(=O)c2c(F)cccc2F)cc1 (configuration not stated)	.	-3	102	105
CC(=O)Nc1ccc(NC(=O)CCCc2c[nH]c3ccccc23)cc1	-13	-14	105	110
CC1CC(C)CN(C(=O)COC(=O)c2ccccc2NS(=O)(=O)c2ccc3c(c2)OCCO3)C1 (configuration not stated)	-6	90	99	107
O=c1[nH]c2sc3c(c2c2nncn12)CCCC3	-25	35	101	102
NC(=O)C1CCN(C(=O)NC2CCCCC2)CC1	-4	-12	100	102
OCCCCn1cnc2cc(Cl)c(Cl)cc21	10	.	106	99
CC(=O)N1CCN(c2nc(C)nc3sc(-c4ccccc4)cc23)CC1	10	32	105	96
COC1c2c(c(-c3ccccc3)nn2-c2ccccc2)-c2nc3ccccc3n21 (configuration not stated)	-20	79	101	99
O=C(CCn1cccc1)NCCCc1ccccc1	-2	-15	101	101
CCc1cc(S(=O)(=O)n2ccnc2)ccc1OC	-21	-1	102	101
COc1ccc(C2=NC(c3ccccc3OC)NC(c3ccccc3O)C2)cc1 (configuration not stated)	-13	12	104	98
CCn1c(SCC(=O)Nc2ccc(OC)cc2)nc2ccsc2c1=O	-18	13	104	106
Cc1cc(C)nc(SCc2nc3scc(C)n3c2Br)n1	-4	-18	104	112

15 of these compounds in another layout:
smiles | Mtb MenB inh | Mtb MbtI inh | PV pol inh | PV pol inh intensity
COCc1[nH]nc2c1C1(C(=O)Nc3ccccc31)C(C#N)=C(N)O2 (configuration not stated) | 6 | . | 101 | 95
COc1ccc2c(COC(=O)c3ccccc3NCCO)cc(=O)oc2c1 | -10 | 98 | 94 | 101
CCc1ccc(NC(=O)C(C)OC(=O)c2c(F)cccc2F)cc1 (configuration not stated) | . | -3 | 102 | 105
CC(=O)Nc1ccc(NC(=O)CCCc2c[nH]c3ccccc23)cc1 | -13 | -14 | 105 | 110
CC1CC(C)CN(C(=O)COC(=O)c2ccccc2NS(=O)(=O)c2ccc3c(c2)OCCO3)C1 (configuration not stated) | -6 | 90 | 99 | 107
O=c1[nH]c2sc3c(c2c2nncn12)CCCC3 | -25 | 35 | 101 | 102
NC(=O)C1CCN(C(=O)NC2CCCCC2)CC1 | -4 | -12 | 100 | 102
OCCCCn1cnc2cc(Cl)c(Cl)cc21 | 10 | . | 106 | 99
CC(=O)N1CCN(c2nc(C)nc3sc(-c4ccccc4)cc23)CC1 | 10 | 32 | 105 | 96
COC1c2c(c(-c3ccccc3)nn2-c2ccccc2)-c2nc3ccccc3n21 (configuration not stated) | -20 | 79 | 101 | 99
O=C(CCn1cccc1)NCCCc1ccccc1 | -2 | -15 | 101 | 101
CCc1cc(S(=O)(=O)n2ccnc2)ccc1OC | -21 | -1 | 102 | 101
COc1ccc(C2=NC(c3ccccc3OC)NC(c3ccccc3O)C2)cc1 (configuration not stated) | -13 | 12 | 104 | 98
CCn1c(SCC(=O)Nc2ccc(OC)cc2)nc2ccsc2c1=O | -18 | 13 | 104 | 106
Cc1cc(C)nc(SCc2nc3scc(C)n3c2Br)n1 | -4 | -18 | 104 | 112

(list continues)
SMILES	Mtb MenB inh	Mtb MbtI inh	PV pol inh	PV pol inh intensity
CSc1nc2ccc(NS(=O)(=O)c3ccccc3C(F)(F)F)cc2s1	3	-6	105	110
O=C(CNc1ccc(Cl)cc1F)N1CCCc2ccccc21	.	-4	103	100
O=C(O)CP(=S)(c1ccccc1)c1ccccc1	-12	-4	100	98
Cc1ccc(C)n1C(Cc1cnc[nH]1)C(=O)O (configuration not stated)	-16	3	97	104
CCOc1ccccc1-c1noc(-c2ccncc2)n1	-35	0	102	97
COc1cccc(-n2c(=O)c3cc(OC)c(OC)cc3n(CC(N)=O)c2=O)c1	3	117	98	102
O=C(O)c1nccnc1-c1nc2ccccc2s1	-6	72	101	113
CN(c1ccc(C(=O)NCCC2=CCCCC2)cc1)S(C)(=O)=O	0	0	102	102
CC1CN(c2ncc(C(=O)OCc3ccc(Cl)cc3)c(C(F)(F)F)n2)CC(C)O1 (configuration not stated)	-6	2	102	95
O=[N+]([O-])c1ccc(O)c([N+](=O)[O-])c1	-3	17	97	99
Cc1ccc(-c2noc(CNC(=O)C3CCCCC3)n2)cc1	2	-18	102	103
CC1SC(=S)N(CCCC(=O)O)C1=O (configuration not stated)	4	18	.	.
CC(=O)n1cc(C2C(=O)CC(C)(C)CC2=O)c2ccccc21	-36	18	101	102
CCC(=O)N1CCN(c2ccc(OC)cc2)CC1	-12	-26	94	95
N#C/C(=N\Nc1cc(C(=O)O)cc(C(=O)O)c1)C(=O)c1ccccc1	-332	8	96	96
Cc1ccc2[nH]c(CNC(=O)c3ccncc3)cc2c1	-7	3	101	105
CCOC(=O)N1CCC(N2CC34C=CC(O3)C(C(=O)Nc3ccc(OCC)cc3)C4C2=O)CC1 (configuration not stated)	8	5	104	98
COc1cc(OC)c(OC)cc1CNCc1ccco1	-15	2	103	104
Cc1ccc(-n2ncc3c(=O)n(CC(N)=O)cnc32)cc1	-67	13	101	103
COC(=O)Cn1c(=O)c2cccn2c2ccccc21	-42	7	102	104
CC(OC(=O)c1ccc2c(c1)NC(=O)C1CCCN21)C(=O)Nc1cccc(C#N)c1 (configuration not stated)	-2	61	105	106
O=C(OCCCn1c(=O)[nH]c2ccccc21)c1ccccc1SCC(=O)N1CCCC1	-21	3	102	106
CC1CC(=O)NN=C1c1ccc(Cl)cc1 (configuration not stated)	-34	-2	99	102
CC1CN(C)C(C)CC1OC(=O)c1ccccc1 (configuration not stated)	-19	-4	101	103
CC1Cc2ccccc2N1C(=O)COC(=O)c1cc2ccccc2oc1=O (configuration not stated)	-10	0	100	102
Further results.
SMILES	Mtb MenB inh	Mtb MbtI inh	PV pol inh	PV pol inh intensity
CCc1cc(C(=O)O)c(NC(=O)c2ccccc2)s1	-23	95	99	99
CCCCC(=O)N1c2ccccc2N2C(c3c(C)cc(C)cc3C)=NON12	-7	4	98	98
Nc1cccc(NC(=O)CCC(=O)NCc2ccco2)c1	-17	-7	100	99
COC(=O)C1=C(C)N(C)C(=O)/C1=C\c1cc(C)n(-c2ccc(C)cc2)c1C	0	-3	101	108
O=C(Nc1ccc(NC(=O)C2CC2)nc1)c1cccc(F)c1	-8	17	100	101
COCCn1c(SCC(=O)NC23CC4CC(CC(C4)C2)C3)nnc1-c1ccncc1	-39	-5	104	91
CC(C)(Oc1ccc(Cl)cc1)C(=O)O	-7&-3	-4&-14	100&101	102&103
Cc1ccc(S(=O)(=O)CC(C)N2CCOCC2)c(S(=O)(=O)CC(C)N2CCOCC2)c1 (configuration not stated)	-12	15	101	104
CC(C)OP(=S)(OC(C)C)OC(C)C	-36	-2	101	104
COC(=O)c1ccc2c(c1)NC(=O)C(C)N2 (configuration not stated)	0	-12	72	197
COc1ccc(OC2C(=O)N(c3cccc(C(F)(F)F)c3)C2c2ccc(OC)c(OC)c2)cc1 (configuration not stated)	-26	.	101	94
CCOC(=O)c1cnc2c(ccc3ccccc32)c1NCCOC(=O)C(C)(C)C	-11	16	102	102
O=C(Nc1ccc2[nH]c(=O)[nH]c2c1)C(F)(F)F	-1	.	106	102
C/C(=N\n1c(C)nc2sc3c(c2c1=O)CCCC3)N(C)C	-7	157	100	104
COC(=O)Nc1ccc2c(c1)ncn2C1CCCCC1	-12	.	108	111
Cc1ccc2c(CSc3nnc(-c4ccccc4)o3)cc(=O)oc2c1	-10	0	104	100
Cc1cc2nc3c(=O)[nH]c(=O)nc-3n(C(O)C(O)C(O)C(O)CO)c2cc1C (configuration not stated)	-90	8	73	194
O=C(O)CN1C(=O)c2cccc3c(Br)ccc1c23	-42	-7	99	101
CCOC(=O)CN1C(=O)C(O)(c2c[nH]c3ccccc23)c2ccccc21 (configuration not stated)	-6	12	99	99
CSc1cccc(N/C(=N\S(=O)(=O)c2ccccc2)NN)c1	5	11	103	103
CC(C)N(Cc1ccccc1)S(=O)(=O)c1ccc(F)cc1	-11	6	101	102
COc1ccc(C2(CNC(=O)CCC(=O)O)CCOCC2)cc1	12	-7	102	102
Cc1occc1-c1nnc(SCC2CCCCO2)n1-c1ccccc1 (configuration not stated)	-20	-12	104	106
CCOc1ccc(Nc2nc3ccccc3s2)cc1	.	0	101	105
O=C(CCN1c2ccccc2Sc2ccccc21)NCCN1CCOCC1	-23	-32	104	108
Next section.
SMILES	Mtb MenB inh	Mtb MbtI inh	PV pol inh	PV pol inh intensity
CCNc1cc(N2CCC(C)CC2)c2noc3c2c1C(=O)c1ccccc1-3	-17	-4	115	174
COn1c(=O)c(=O)n(OC)c2ccccc21	6	7	101	102
CCc1ccccc1NC(=O)CCCOc1cc(=O)n(C)c2ccccc12	3	0	106	99
O=C(NCc1ccccc1)C1CC=CCC1C(=O)NNc1ncnc2ccccc12 (configuration not stated)	-17	-11	100	103
CCCN1C(=O)/C(=C/C=C2/Oc3ccccc3N2CCC(=O)O)N(CCO)C1=S	-17	5	68	195
CCOC(=O)Nc1cc(=O)c2ccccc2o1	-7	108	103	107
C#CCCCCCCCCCCCCCCCC(=O)O	3	-22	101&100	105&104
CCN(CC)C(=O)c1noc2c1CCCCC2	-19	-18	103	103
CCc1ccc(NC(=O)COC(=O)c2ccc3c(c2)nc(C)c(=O)n3CC)cc1	-36	-4	113	105
CCC(SC1=Nc2ccccc2C2=NC(CCC(=O)NCc3ccc4c(c3)OCO4)C(=O)N12)C(=O)NC1CCCCC1 (configuration not stated)	15	11	100	96
CN(Cc1ccccc1)C(=O)C1CCN(S(=O)(=O)c2ccc3c(c2)CCCC(=O)N3)CC1	-6	-3	102	104
CC1(C)CC(=O)C2=C(C1)Oc1ccccc1C2CC(=O)c1ccc(O)cc1 (configuration not stated)	.	-2	103	106
O=C1c2ccccc2C(=O)N1CC1CC2C=CC1C2 (configuration not stated)	-4	3	102	102
Cn1c(CN2CCOCC2)nnc1SCC(N)=O	-67	-10	102	103
O=C(CSc1nnc(-c2ccccc2)n1-c1ccccc1)N/N=C/c1ccc(O)c(O)c1	10	10	100	101
Cc1cc(C)nc(SCC(=O)OCc2cc(=O)n3ccsc3n2)n1	2	71	103	99
Cc1cc(C(F)(F)F)nn1CC(=O)NN1C(=O)c2ccccc2C1=O	-9	-9	99	102
CC(Sc1nnc(-c2cccc(Br)c2)n1C)C(=O)NC1CC1 (configuration not stated)	9	4	100	108
CC1CC(Nc2ccccc2)c2ccccc2N1C(=O)c1ccccc1F (configuration not stated)	-42	-9	103	107
CCC[n+]1ccc(-c2c[nH]c3ccccc23)cc1	-42	.	106	104
COc1ccc(N=C(C)c2c(C(F)(F)F)[nH]n(-c3nc4ccccc4s3)c2=O)cc1OC	-13	.	101	104
Cc1ccccc1NS(=O)(=O)N(C)C	-12	.	104	102
CCOC(=O)CCCn1ncn2c(cc3sc(CC)cc32)c1=O	-3	-6	98	103
O=C(COC(=O)C1(c2ccccc2)CC1)c1ccc[nH]1	-3	-4	104	110
Clc1nc2ccccc2c(N2CCCCC2)c1CNC1CC1	-82	-2	.	.
(cont.)
SMILES	Mtb MenB inh	Mtb MbtI inh	PV pol inh	PV pol inh intensity
CC1CCc2ccccc2N1 (configuration not stated)	-46	-53	102	104
CC(C)c1ccc(CNC2CC2)cc1	-11	-7	100	102
COC(=O)c1cc(Br)ccc1OC(=O)/C=C/c1ccccc1	-2	.	108	111
CCSc1nc(-c2ccccc2)c(C#N)c(=O)[nH]1	1	10	100	102
CCn1cc(SCC(=O)Nc2cccc(OC)c2)c2ccccc21	-29	16	100	104
c1ccc2c(Cc3c[nH]c4ccccc34)c[nH]c2c1	2	1	101&100	104&103
Nc1cccc2c1C(=O)N(CC(=O)O)C2=O	-119	-11	87	117
O=c1[nH]c(SCc2ccccc2)nc2[nH]ncc12	-9	12	102	104
COc1cccc2cc(-c3nc4sc(C(=O)Nc5cccc(F)c5)c(C)c4c(=O)[nH]3)c(=O)oc12	3	9	73	170
CCN1C(=O)/C(=C/N(C)c2ccccc2)OC1=S	-80	7	102	96
CC(C)NC(=O)CNCc1ccc(N2CCCCC2)cc1	-6	8	104	104
Cc1ccc2nc(-c3ccccc3)cc(C(=O)NCc3ccccc3)c2c1	-10	4	103	104
O=C(O)c1cc(-c2ccccc2)nc2nc(N3CCCCC3)sc12	-19	106	100	105
CCOC(=O)C1CCCN(C(=O)c2cccc(Oc3ccccc3)c2)C1 (configuration not stated)	.	4	102	95
COC(=O)c1ccc(COc2ccc3c(oc(=O)c4cc(OC)ccc43)c2C)o1	-25	-12	101	101

Screening data: PubChem, ICCB-Longwood Screening Facility, Harvard Medical School
